# PINK1 modulator: A Quantitative High throughput Screen to Identify Chemical Modulators of PINK1 Expression; PINK1 immunofluorescence, high-content cytometry, 24 h; Potency, µM (series often up to 76.6 µM), without a hit: at the top dose activation (PINK1 increase), actives largely listed as activators; actives 0.2% (n = 410,000); AID 624263, 2012; active = well fitted activation curve with a large enough effect; inconclusive = small, poorly fitted or top-dose-only effect; inactive = flat fitted curve, though single readings scatter; cell line not stated here;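 also: % of control where 0% means no effect; nearly all actives have a fitted effect of over 65% in size; a mitochondrial uncoupler was the plate control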
#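 A stable cell line was treated with compounds at 5 concentrations for 24 hours, with CCCP as control. PINK1 levels and mitochondrial localization were measured by immunofluorescence with mitochondrial, cell and nuclear markers after fixation, read by laser-scanning cytometry.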
# * = called active by the depositor. Potency is read from the fitted curve at half-maximal effect.
SMILES,PINK1 modulator
CCCCn1cc(S(=O)(=O)c2ccc(OCC)cc2)c(=O)c2cc(OC)c(OC)cc21,3.2%
CCOc1ccccc1NC(=O)CN1c2ccccc2S(=O)(=O)c2ccccc21,1.1%
CCc1ccc(Nc2ncnc3sc4c(c23)CCCC4)cc1,-4.5%
Cc1ccccc1-c1nc(CNC(=O)Nc2ccccc2)c(C)o1,-1.0%
CCOc1cccc(C(=O)Nc2nnc(S(=O)(=O)N(C)c3ccc(C)cc3)s2)c1,0.2%
Cc1cccc(-c2noc(-c3ccccc3OCC(=O)Nc3ccccc3[N+](=O)[O-])n2)c1,1.0%
COc1ccc(CNC(=O)CN(c2cc(C(F)(F)F)ccc2Cl)S(C)(=O)=O)cc1,0.4%
Cc1cccc(NC(=O)CN2C(=O)C(c3ccccc3)=NC23CCC(C)CC3)c1 (stereo unspecified),4.7%
CN1CCN(C(CNC(=O)c2cccc(F)c2)c2ccc3c(c2)OCO3)CC1 (stereo unspecified),-1.5%
CCc1ccc(-c2nc(CN3CCCC(C(=O)NCc4ccccc4Cl)C3)c(C)o2)cc1 (stereo unspecified),-0.5%
CCOC(=O)c1c(C)[nH]c(C)c1S(=O)(=O)N(C)CC(=O)N1CCN(c2ccc(Cl)cc2)CC1,2.8%
O=C(CCCCn1c(=O)c2ccccc2n(Cc2ccccc2F)c1=O)NCc1ccc2c(c1)OCO2,-0.6%
CN1CCN(CCCNC(=O)c2ccc3nc(Cc4ccccc4)oc3c2)CC1,-0.5%
CC(=O)c1cccc(NC(=O)Nc2cc3c(cc2N2CCCC2)n(C)c(=O)n3C)c1,3.3%
Cc1ccccc1CCNC(=O)c1ccc2c(c1)nc1n2CCCCC1,2.5%
COc1cc(=O)n2c(c1C(=O)NC(C)c1ccco1)CCN(Cc1cc(C)ccc1C)CC2 (stereo unspecified),-0.6%
COc1cccc(C(=O)N(Cc2ccco2)c2ccccn2)c1,0.6%
CC1=C(C(=O)Nc2ccccc2)C(c2ccc(F)cc2)n2nc(SCc3cc(C)ccc3C)nc2N1 (stereo unspecified),-0.1%
COc1ccc(CNC(=O)c2ccc3nc(-c4ccc(F)cc4)c(-c4ccc(F)cc4)nc3c2)cc1,2.5%
COc1cc(NC(=O)CC2C(=O)N(c3cccc(C)c3)C(=O)N2Cc2ccc(F)cc2)cc(OC)c1 (stereo unspecified),1.5%
Cc1cccc(N2CCN(S(=O)(=O)c3ccc(-c4cc(C(F)(F)F)on4)s3)CC2)c1C,0.3%
COc1ccc(NC(=O)c2oc3ccc(S(=O)(=O)N(C)C4CCCCC4)cc3c2C)cc1,0.9%
Cn1c(/C(C#N)=C/c2ccccc2Br)nc2ccccc21,5.6%
COc1cccc(NC(=O)CSc2nc(-c3ccccc3Cl)nc3c2Cc2c(CO)cnc(C)c2O3)c1,-0.5%
COCCn1c(C)cc(O)c(C(c2ccc(Cl)cc2)N2CCN(c3ccccc3)CC2)c1=O (stereo unspecified),-0.5%

# A section from the list above, for reference:
SMILES,PINK1 modulator
CN1CCN(C(CNC(=O)c2cccc(F)c2)c2ccc3c(c2)OCO3)CC1 (stereo unspecified),-1.5%
CCc1ccc(-c2nc(CN3CCCC(C(=O)NCc4ccccc4Cl)C3)c(C)o2)cc1 (stereo unspecified),-0.5%
CCOC(=O)c1c(C)[nH]c(C)c1S(=O)(=O)N(C)CC(=O)N1CCN(c2ccc(Cl)cc2)CC1,2.8%
O=C(CCCCn1c(=O)c2ccccc2n(Cc2ccccc2F)c1=O)NCc1ccc2c(c1)OCO2,-0.6%
CN1CCN(CCCNC(=O)c2ccc3nc(Cc4ccccc4)oc3c2)CC1,-0.5%
CC(=O)c1cccc(NC(=O)Nc2cc3c(cc2N2CCCC2)n(C)c(=O)n3C)c1,3.3%
Cc1ccccc1CCNC(=O)c1ccc2c(c1)nc1n2CCCCC1,2.5%
COc1cc(=O)n2c(c1C(=O)NC(C)c1ccco1)CCN(Cc1cc(C)ccc1C)CC2 (stereo unspecified),-0.6%
COc1cccc(C(=O)N(Cc2ccco2)c2ccccn2)c1,0.6%
CC1=C(C(=O)Nc2ccccc2)C(c2ccc(F)cc2)n2nc(SCc3cc(C)ccc3C)nc2N1 (stereo unspecified),-0.1%
COc1ccc(CNC(=O)c2ccc3nc(-c4ccc(F)cc4)c(-c4ccc(F)cc4)nc3c2)cc1,2.5%
COc1cc(NC(=O)CC2C(=O)N(c3cccc(C)c3)C(=O)N2Cc2ccc(F)cc2)cc(OC)c1 (stereo unspecified),1.5%
Cc1cccc(N2CCN(S(=O)(=O)c3ccc(-c4cc(C(F)(F)F)on4)s3)CC2)c1C,0.3%
COc1ccc(NC(=O)c2oc3ccc(S(=O)(=O)N(C)C4CCCCC4)cc3c2C)cc1,0.9%
Cn1c(/C(C#N)=C/c2ccccc2Br)nc2ccccc21,5.6%

# Remaining list, next part.
SMILES,PINK1 modulator
COc1cc(OC)c(NC(=O)c2cc3c(s2)-c2ccc(Cl)cc2SC3)cc1Cl,-0.7%
CCC1Oc2ccccc2N(CC(=O)NCc2cc(OC)ccc2OC)C1=O (stereo unspecified),0.6%
Cc1cccc(N2CCN(C(=O)c3cccc(-n4c(C)nc5cccnc54)c3)CC2C)c1 (stereo unspecified),-1.1%
CCS(=O)(=O)N1CCc2cc(C(=O)N3CCN(c4ccc(OC)cc4)CC3)ccc21,0.5%
Cc1cc(C)n2c(Nc3ccccc3C)c(-c3cccs3)nc2n1,0.9%
CCCCOC(=O)c1ccc(OC(=O)c2sc3ncn(Cc4ccccc4Cl)c(=O)c3c2C)cc1,1.6%
Cn1c(=O)c2c(nc(SCC(=O)Nc3ccccc3F)n2Cc2ccc(Cl)cc2)n(C)c1=O,-0.8%
CNS(=O)(=O)c1cn(CC(=O)Nc2cccc(C(F)(F)F)c2)cc1S(=O)(=O)NC,-0.4%
COc1ccc(S(=O)(=O)NCCc2sc(C)nc2C)cc1,3.1%
Cn1c(-c2ccccc2)cnc1NCc1ccccc1O,-0.1%
CCc1cccc(C)c1NC(=O)c1cc(S(=O)(=O)N2CCOCC2)cn1C,1.0%
CCc1cnc2c(c1SCC(=O)Nc1ccc(Cl)cc1)c(=O)n(C)c(=O)n2C,5.2%
Cc1cc(C)n(-c2nc3ccccc3nc2Nc2ccc(C(C)C)cc2)n1,0.6%
O=C(C1CC1)N1CCc2cc(Br)cc(S(=O)(=O)N3CCN(c4ccccc4)CC3)c21,5.2%
CCOC(=O)c1cccc(NC(=O)c2cc(S(=O)(=O)N3CCCC(C)C3)cn2C)c1 (stereo unspecified),-0.5%
Cc1cccc(NC(=O)c2ccc3c(c2)CCN3S(=O)(=O)c2ccccc2)c1C,0.2%
Cc1ccc(-c2nc3ccccn3c2Nc2ccccc2C)s1,-3.5%
Clc1cccc(-c2ccc3ncnc(NCc4cccnc4)c3c2)c1,0.2%
COC(=O)[C@@H]1CCCN1Cc1ccc2c(c1)CN(Cc1ccc3c(c1)CCCN3C)CCO2,-0.4%
CCN(CC)CCN(C(=O)c1ccco1)c1nc2c(C)cccc2s1,6.1%
CCOC(=O)c1cccc(NC(=O)C2CCN(c3nnc(C)c4c(C)n(-c5ccccc5)nc34)CC2)c1,-0.2%
COc1cc(C)c(C)cc1S(=O)(=O)Nc1cccc(-c2ccc(N3CCOCC3)nn2)c1,1.4%
COc1ccc(NS(=O)(=O)c2ccc(-c3cnc(C4CC4)o3)cc2)cc1Cl,1.1%
Cc1ccccc1CNCCCSc1nnnn1-c1ccccc1,-0.4%
CC(C)Oc1ccc(CNC(=O)C2CCN(c3nc4ccccc4n(C)c3=O)CC2)cc1,3.1%
# (list continues)
SMILES,PINK1 modulator
COc1ccc(Cl)cc1NC(=O)Cn1cc(C(=O)c2ccc(C)cc2)c(=O)c2ccc(C)nc21,2.8%
CCOc1ccc(-n2nc3ccc(NC(=O)c4ccc(C)cc4C)cc3n2)cc1,0.3%
CCc1cccc(CC)c1NC(=O)c1c(C)oc2ccc(O)c(CN3CCCC3)c12,-0.6%
O=C(CSc1nccn1Cc1ccc(F)cc1)Nc1ccc2c(c1)OCO2,-7.2%
COc1ccc(CCNC(=O)c2cnn3c2NC(=C2CC2)C=C3C(F)F)cc1OC,1.4%
Cc1ccc(CNC(=O)CSc2nc3n[nH]c(C)c3c(=N)n2-c2ccccc2Cl)cc1,0.0%
Clc1ccc(-c2csc3ncnc(Sc4nnnn4C4CC4)c23)cc1,-0.2%
CSc1ccc(CNC(=O)Cn2ccc3cc(S(=O)(=O)N4CCCC4)ccc32)cc1,-0.3%
Cc1ccc(Cl)cc1N1CCN(C(=O)Cn2cnc3nc4c(cc3c2=O)CCCC4)CC1,0.8%
COc1ccc(CN2CCCC(n3cc(C(=O)N4CCCCC4)nn3)C2)c(OC)c1OC (stereo unspecified),1.8%
CCOC(=O)c1c(C)[nH]c(CCC(=O)NCc2ccc(OC)c(OC)c2)c1C,2.2%
CCC(C(=O)NC1CCCCC1)n1nc(C)c2sc3ccccc3c2c1=O (stereo unspecified),-0.4%
COc1ccc2c(CNC3CCCCCC3)c(C(=O)O)n(Cc3ccccc3F)c2c1,-2.6%
O=S(=O)(Nc1ccc(-c2ccc(N3CCCC3)nn2)cc1)c1ccc(Cl)cc1,1.1%
O=C1CSC2(C(=O)N(Cc3ccccc3F)c3ccccc32)N1c1ccc(F)cc1 (stereo unspecified),0.5%
Clc1ccc2nc(-c3ccc(N4CCOCC4)cc3)c(Nc3ccccc3)n2c1,0.1%
COc1cc(-c2nc(-c3cccc(Cl)c3)c(-c3ccccc3)[nH]2)cc(OC)c1OC,1.2%
CCOC(=O)c1c(S(=O)(=O)N2CCC(C(=O)Nc3ccc(F)cc3F)CC2)c(C)n(C)c1C,1.6%
CN(C)c1ccc(-c2nn3c(-c4cc(-c5ccccc5)n[nH]4)nnc3s2)cc1,1.8%
COc1ccc(-c2cnnn2-c2ccc(NC(=O)c3c(F)cccc3F)cc2)cc1,1.8%
COc1ccc(CCNC(=O)c2cn(C)c3ccc(S(=O)(=O)N(C)C)cc3c2=O)cc1OC,1.4%
Cc1oc(-c2ccccc2NC(=O)C2CCC2)nc1CNC(=O)c1cccc(C(F)(F)F)c1,-0.7%
COc1ccccc1NC(=O)c1sc2nc3n(c(=O)c2c1C)N=C(c1cccc(Br)c1)CS3,1.0%
Cc1c(C(=O)N(C)Cc2ccccc2)sc2nc(-c3ccc(F)cc3)cn12,3.8%
CCC1=Nc2cc(C(=O)NC(C)c3ccccc3)ccc2Sc2ccc(Cl)cc21 (stereo unspecified),5.9%
# Following part
SMILES,PINK1 modulator
CCCCC(=O)OCc1cc(=O)n2nc(C3CC3)sc2n1,-0.7%
Cc1ccc(Cl)cc1N1CCN(C(=O)c2cn(C)c3ccc(S(=O)(=O)N(C)C4CCCCC4)cc3c2=O)CC1,3.7%
CCc1ccccc1NC(=O)C1CCN(S(=O)(=O)c2cn(C)cn2)CC1,-0.7%
Cc1ccc(C(C)C)c(OCC(=O)Nc2cccc(NC(=O)c3ccco3)c2)c1,-1.1%
COc1ccc2[nH]cc(CCNC(=O)Nc3cccc(F)c3)c2c1,-0.7%
Cc1nc2nc(NC(=O)CC(C)C)[nH]n2c(=O)c1Cc1ccccc1,2.1%
O=C(NC1CCCCC1)c1cc(Nc2cccc(C(F)(F)F)c2)nc2ccccc12,6.3%
CCN1CCc2c(sc(-n3cccc3)c2C(C)NC(=O)Nc2cc(Cl)c(OC)cc2OC)C1 (stereo unspecified),2.6%
COc1ccc(-c2onc(C)c2C)cc1S(=O)(=O)Nc1cc(Cl)ccc1C,6.9%
COc1cccc(C(=O)NC2=NC(c3ccccc3F)CC(=O)N2)c1 (stereo unspecified),-0.1%
O=C(C1CCCN(S(=O)(=O)c2cccc3nsnc23)C1)N1CCN(c2cccc(Cl)c2)CC1 (stereo unspecified),1.6%
CCOC(=O)C1CCCN(c2ncnc3c2cnn3-c2ccc(C)c(Cl)c2)C1 (stereo unspecified),1.8%
COc1ccc(OCc2ccc(-c3nc(C#N)c(NCc4cccnc4)o3)o2)cc1,-1.5%
Cc1ccc(NC(=O)CN2C(=O)COc3ccc(S(=O)(=O)NC4CCCC4)cc32)cc1Cl,5.5%
C#CC(C)(CC)NC(=O)c1cc2c(n(-c3ccc(Cl)cc3)c1=O)CC(C)(C)CC2=O (stereo unspecified),1.2%
CCN(CC)C(=O)CSc1nnc2[nH]c(=O)cc(C)n12,4.6%
COc1ccc(N2CC(NC(=O)COc3ccccc3F)CC2=O)cc1OC (stereo unspecified),0.9%
CCOc1ccccc1NC(=O)Cn1c(=O)n(Cc2ccco2)c(=O)c2cccnc21,-1.1%
COc1ccc(NC(=O)c2noc3c2CCCC3)cc1Cl,4.8%
Cc1cccc(NC(=O)CSc2nc3c(c(=O)[nH]2)CN(Cc2ccc4c(c2)OCO4)CC3)c1C,1.6%
O=C(COC(=O)c1ccccc1Oc1ccccc1)Nc1ccc(Br)cc1,1.2%
CCOC(=O)c1cc(S(=O)(=O)NCc2ccc(OC)cc2)[nH]n1,-1.5%
Cc1ccc(CCNC(=O)C2CCCN(Cc3nc(-c4cccc(Cl)c4)oc3C)C2)cc1 (stereo unspecified),0.4%
CCCCOC(=O)c1ccc(NC(=O)/C(C#N)=C/c2ccc(C)o2)cc1,1.8%
CCn1c(CN2CCN(C)CC2)nc2cc(NC(=O)c3cc(OC)c(OC)c(OC)c3)ccc21,3.8%
# (cont.)
SMILES,PINK1 modulator
CCOc1cc(C(=O)NCCc2csc(-c3ccc(C)cc3)n2)cc(OCC)c1OCC,0.7%
O=C(CSCc1nc2cccnc2n1C1CCCCC1)NCc1cccc(Cl)c1,0.4%
O=C(c1ccc(CSc2nc3ccncc3n2Cc2ccccc2F)cc1)N1CCCCCC1,0.9%
CC(C(=O)NCc1cccc(Br)c1)n1ncn2cccc2c1=O (stereo unspecified),-0.7%
COc1ccc(NC(=O)CCS(=O)(=O)c2cc3c4c(c2)CCN4C(=O)CC3)c(OC)c1,-1.5%
CCOC(=O)N1CCc2c(sc(NCc3ccc(OC)c(Br)c3)c2C(=O)Nc2cc(OC)ccc2OC)C1,2.7%
CC(=O)c1ccc(NC(=O)Nc2nnc(N3CCCC(C)C3)s2)cc1 (stereo unspecified),0.0%
CCOC(=O)c1c(NC(=O)/C=C/c2ccccc2)sc2c1CCCC2,1.7%

# Assay outcomes from PubChem BioAssay.

# Only part of the results is shown, so the mix of outcomes need not match the whole.
